eIF4H inh – human eIF4H binding inhibitors, primary screen, translation initiation inhibitor project, biochemical, uHTS, fluorescence polarization; inhibition, % at 35 µM; eIF4H fluorescence polarization binding assay; 290,000 tested, 0.94% active; AID 2012, 2009;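 active means 50% or more with normal probe brightness, or confirmed in later tests; inconclusive means above 50% with abnormal brightness, or retests that disagree; inactive means below 50% or failed in later tests; about a fifth of its hits are not listed in these tables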;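 further: calls also rest on retests at 20 µM and on dose response follow-up; 0% = protein and probe with vehicle and 100% = probe without protein; strong numbers were not always called active; many hits fall short of the cut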
MT1-MMP act inh – blockers of MT1-MMP proenzyme processing, primary screen, HT1080 RFP-PRO-GFP cells, GFP/RFP fluorescence; Matrix metalloproteinase-14 (Homo sapiens), P50281; GFP/RFP ratio fluorescence, overnight; percent of plate control window, DMSO zero; GFP/RFP ratio change, % at 20 µM; 360,000 tested, 0.061% active; AID 651647, 2012;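 active means GFP/RFP ratio change of at least 30% with cell ATP level not reduced by more than half and red fluorescence within 50% of control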; further: strong numbers were not always called active
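Read-out: GFP/RFP fluorescence ratio; Test system: RFP-PRO-GFP reporter HT1080 cells; Compound dosing: single-point 20 µM compound, 1% DMSO; Times: overnight compound exposure at 37 °C.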
Yeast UUG start – modulators of yeast start codon fidelity, primary screen, whole organism, S. cerevisiae, single point, plate reader. S. cerevisiae UUG-firefly luciferase reporter, luminescence/redox ratio. activity score, % at 18.7 µM. 350,000 tested, 0.13% active. AID 602363, 2012;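 active means replicate mean at a twofold rise or more, about +100% in these data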;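 further: firefly luciferase made from a UUG start codon reports start codon fidelity; reporter light over untreated wells divided by growth signal over untreated wells; some hits fall short of that in this replicate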
CSC inhib – cancer stem cell viability inhibitors, primary screen, luminescence; inhibition, % at 7.5 µM; AID 2717, 2010; cancer stem cell-like cells viability; 300,000 tested, 1.1% active;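 active means mean at 75% or more and at least half the replicates too; inconclusive means mean and replicates disagree; tested in HMLE shEcad cells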;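 further: 0% = median of negative and 100% = median of positive control wells; the first replicate is given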
Env fusion inh – inhibitors of HIV-1 Env-driven cell-cell fusion, primary screen, HeLa-JRFL effector, CEM21 target cells, luciferase; AID 651610, 2012; inhibition, % at 12.3 µM; 360,000 tested, 1.1% active;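 active means mean replicate inhibition score of at least 50 and every replicate individually at or above 50; inconclusive means only one of the two criteria met; inactive means mean below 50 and not all replicates reaching 50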;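 further: 0% = plate neutral controls and 100% = maraviroc near 300 nM; one replicate is shown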
PABP polyA inh – PABP poly(A) RNA binding inhibitors, primary screen, biochemical, fluorescence polarization, uHTS; Polyadenylate-binding protein 1 (Homo sapiens), P11940; inhibition, % at 35 µM; 290,000 tested, 1% active; AID 2014, 2009;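 active means 50% or more with normal probe brightness, or confirmed in later tests; inconclusive means above 50% with abnormal brightness, or retests that disagree; inactive means below 50% or failed in later tests; about a fifth of its hits are not listed in these tables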;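 further: calls also rest on retests at 20 µM and on dose response follow-up; controls were probe without protein and protein plus probe with vehicle; some compounds called inactive have numbers as strong as hits; many hits fall short of the cut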
Target sequence (P11940 whole entry, looked up): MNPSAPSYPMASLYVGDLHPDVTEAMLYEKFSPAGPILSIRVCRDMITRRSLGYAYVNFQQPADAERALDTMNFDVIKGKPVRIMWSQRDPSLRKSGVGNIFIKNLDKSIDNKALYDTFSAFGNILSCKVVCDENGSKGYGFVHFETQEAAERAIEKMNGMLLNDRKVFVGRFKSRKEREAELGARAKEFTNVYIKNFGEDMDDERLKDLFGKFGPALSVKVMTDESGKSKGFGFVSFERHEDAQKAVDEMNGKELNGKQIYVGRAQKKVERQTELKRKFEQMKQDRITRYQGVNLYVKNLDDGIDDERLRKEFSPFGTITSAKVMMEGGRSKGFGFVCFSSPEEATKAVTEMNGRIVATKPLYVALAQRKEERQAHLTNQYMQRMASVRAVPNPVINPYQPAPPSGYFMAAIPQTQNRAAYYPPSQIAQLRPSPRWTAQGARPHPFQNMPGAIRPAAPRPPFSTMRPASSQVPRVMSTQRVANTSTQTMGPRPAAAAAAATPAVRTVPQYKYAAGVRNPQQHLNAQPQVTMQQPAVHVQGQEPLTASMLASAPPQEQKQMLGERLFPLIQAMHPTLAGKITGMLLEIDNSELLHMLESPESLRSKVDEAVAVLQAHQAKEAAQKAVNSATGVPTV
Rce1 inh – yeast Rce1p protease inhibitors, primary screen, biochemical, fluorescence, cell-free homogeneous; CAAX prenyl protease 2 (Saccharomyces cerevisiae (strain ATCC 204508 / S288c)), Q03530; yeast membranes, quenched prenylated peptide cleavage fluorescence; calls only; 290,000 tested, 0.27% active;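 active means fall in fluorescence gain of 50% or more versus controls, with final raw signal at or below 3038400; inconclusive means same 50% fall but final raw signal above 3038400; inactive means fall in fluorescence gain under 50%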;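 further: plate controls were neutral control wells for no effect and wells lacking membranes for full effect; tested at 10 µM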
MT1-MMP act inh RFP – further read-out of MT1-MMP act inh, marked with its call; RFP signal change, %; measured here: RFP expression control read;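 0 = vehicle wells; hits needed this value within 50% of zero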
The depositor's hits bear a star; i = inactive; ? = inconclusive; . = no result given.

SMILES | eIF4H inh | MT1-MMP act inh | MT1-MMP act inh RFP | Yeast UUG start | CSC inhib | Env fusion inh | PABP polyA inh | Rce1 inh
O=C1CC(=O)Nc2cc(S(=O)(=O)N3CCN(c4cccc(C(F)(F)F)c4)CC3)ccc2N1 | 2 | -1 | -2 | . | 21 | -15 | 12 | i
COc1cccc(-n2nnnc2SCC(=O)Nc2ccc(OC)cc2OC)c1 | -3 | 1 | 2 | -6 | -7 | 14 | 1 | i
Cn1ccc(=S)c2ccccc21 | 8 | 1 | 3 | -30 | -1 | -3 | 5 | i
C/C(=N\Nc1cccc(Cl)c1)c1ccncc1 | -12 | 2 | -2 | . | 33 | -2 | -7 | i
Cc1cc(Cl)cc(Cl)c1OCCCCN(C)C | 8 | 1 | -3 | . | . | 5 | -12 | i
CCOc1ccc(NC(=NCc2ccc3c(c2)OCO3)SC2CC(=O)N(c3ccccc3)C2=O)cc1 (stereo unspecified) | 2 | 0 | -2 | 0 | -9 | -36 | -7 | i
CC1(C)Cc2c(C#N)c(N)sc(=S)c2CS1 | ? | -26 | 11 | -15 | -6 | . | ? | i
CC12CC(c3ccccc3O1)N(C(=O)c1ccco1)C(=S)N2c1ccc(F)cc1 (stereo unspecified) | -8 | 5 | 4 | . | 14 | -16 | -8 | i
CCOC(=O)c1ccccc1NC(=O)[C@@H]1CCCN1C(=O)OC(C)(C)C | -4 | 0 | 2 | 1 | -7 | 7 | -4 | i
O=C(CCCC(=O)Nc1ccc(Br)cc1)N/N=C/c1ccccc1 | -3 | -3 | -2 | 7 | 3 | -226 | -14 | i
O=C(CCn1c(=O)c2ccccc2n(Cc2ccccc2)c1=O)NC1CCN(Cc2ccccc2)CC1 | -6 | 2 | -3 | . | -6 | 11 | -6 | i
O=C(NCc1ccco1)/C(=C\c1cccs1)NC(=O)c1ccco1 | 0 | -6 | -4 | . | -5 | -38 | 0 | ?
COc1ccc2c(C(=O)CN3CCC(C)CC3)c[nH]c2c1 | 26 | 0 | 7 | -13 | -9 | -116 | 19 | i
COc1ccc(-c2cc(C(F)(F)F)n3nc(C(=O)O)nc3n2)cc1 | -4 | 4 | 3 | -1 | . | -82 | 8 | i
Cc1cccc(C)c1NC(=O)CN(C)C(=O)CCC(=O)N1CCOCC1 | . | 3 | -4 | -14 | -2 | 8 | . | .
COc1ccc(CNC(=O)c2ccc(-c3ccccc3)cc2)cc1OC | -3 | -2 | -11 | . | 1 | 7 | -3 | i
NS(=O)(=O)c1ccc(NC(=S)NC(=O)C2CCCC2)cc1 | -9 | -3 | 3 | -14 | 12 | -10 | -5 | i
CC(C)(C)c1cc(C(=S)N2CCN(CCO)CC2)cc(C(C)(C)C)c1O | -6 | 3 | 1 | -12 | 1 | -15 | 5 | i
O=C(CCCN=C1NS(=O)(=O)c2ccccc21)OCC(=O)c1ccc(F)c(F)c1 | . | 7 | 4 | 22 | -5 | -9 | . | i
CC(C)c1cc(C(=O)NC2CCCCC2)no1 | -13 | 7 | 2 | -10 | . | -43 | -10 | i
NC(=S)Nc1ccc(C(F)(F)F)cc1Cl | -20 | 7 | 1 | -21 | 4 | -3 | 6 | i
O=C(CCNC(=O)c1ccc([N+](=O)[O-])cc1)NNC(=O)c1ccncc1 | -21 | -2 | 1 | -20 | -3 | . | 6 | i
CCCc1nn(C)c(C(=O)Nc2ccc(Cl)cc2)c1Cl | 11 | -1 | -7 | . | -3 | . | -4 | i
Cc1ccccc1C(=O)c1cccn1CC(=O)NCc1ccccc1 | 8 | -1 | 2 | . | 1 | -11 | 3 | i
CN(CCO)c1nc(NCc2ccccc2)c2cnn(C)c2n1 | -6 | -3 | -2 | 0 | 24 | 26 | 3 | i
COc1ccc(Cc2nnc(SCc3nc4ccccc4c(=O)[nH]3)n2C)cc1 | -1 | 0 | 2 | -8 | -4 | . | 5 | i
Cc1ccc(NC(=O)C(C)Sc2nnc(C)n2C)cc1 (stereo unspecified) | -6 | -2 | 3 | -8 | -9 | 4 | 4 | i
COc1cc(C(=O)NC2CCCC(C)C2C)ccc1OCC(=O)N1CCOCC1 (stereo unspecified) | . | 1 | 0 | 14 | 6 | . | . | .
COc1ccc(C)cc1NC(=O)Nc1ccccc1 | 4 | 0 | -2 | -1 | -3 | . | 8 | i
COc1cc(C)c(Cl)cc1S(=O)(=O)N1CCSC1 | 0 | -1 | -1 | -11 | -5 | -19 | -5 | i
COc1cccc(C(=O)NNS(=O)(=O)c2ccccc2)c1 | . | -2 | 3 | -9 | . | 5 | . | .
CN(CC(=O)Nc1ccccc1Cl)C(=O)COC(=O)c1ccc(-c2ccc(O)cc2)cc1 | . | 2 | 4 | -4 | 1 | 1 | . | .
COc1ccc(C2(c3ccc(OC)cc3)NC(=O)N(CC(=O)NC3(C#N)CCCC3)C2=O)cc1 | . | -5 | -1 | -9 | . | -2 | . | .
Nc1ncnc2nc(SCC(=O)N3CCN(c4ccccc4)CC3)[nH]c12 | -6 | -8 | -4 | -7 | -10 | -31 | 0 | i
Cc1ccc(-c2cc(C(=O)N/N=C/C=C/c3ccco3)c3ccccc3n2)cc1C | 36 | -1 | 3 | 1 | 8 | -234 | -2 | i
O=C(Nc1ccccc1)c1ccc(C(=O)Nc2ccccc2)nc1 | -1 | 2 | 3 | . | -9 | 12 | -6 | i
COc1ccc(S(=O)(=O)NCCOc2ccccc2)cc1C | -5 | -5 | -2 | . | 6 | 12 | 10 | i
COc1ccc(-c2nn(-c3ccccc3)cc2/C=C/C(=O)OCC(=O)Nc2ccc(C#N)cc2)cc1 | 5 | -1 | -2 | -13 | 17 | . | -2 | i
CCCCOc1ccc(-c2cn3ccccc3n2)cc1[N+](=O)[O-] | -4 | 11 | 8 | -20 | 36 | -117 | 6 | i
Cn1c(NNC(=O)C2CCCCC2)cc(=O)n(C)c1=O | -6 | 2 | 0 | -11 | -4 | 8 | -10 | i
Cc1ccc(N2C(=O)C(Cc3ccc(O)cc3)NC2=S)cc1C (stereo unspecified) | -7 | 1 | 3 | -27 | 4 | -9 | -4 | i
CCC1(C)Cc2ccccc2-c2nc(SC)[nH]c(=O)c21 (stereo unspecified) | 3 | -2 | -4 | . | 41 | 80* | -1 | i
Cc1c(Nc2ccc(C=O)cc2)c(=O)n(-c2ccccc2)n1C | -3 | -4 | -2 | . | . | 12 | 2 | i
NS(=O)(=O)c1ccc(NC(=S)Nc2nn(Cc3ccc(Cl)cc3Cl)cc2Cl)cc1 | 2 | 3 | 0 | . | -6 | 1 | 1 | i
COc1ccccc1NC(=O)Nc1nnc(CC(=O)Nc2cccc(C)c2)s1 | -7 | 5 | 0 | . | 4 | -2 | -8 | i
O=C(c1ccc([N+](=O)[O-])cc1)N1CCN(C(=O)C2CCCCC2)CC1 | -10 | -4 | -4 | -3 | -5 | 13 | -2 | i
O=C1CSC(c2ccccc2)N1CCc1ccccc1 (stereo unspecified) | -8 | 2 | 1 | -5 | -13 | 9 | -10 | i
Cc1cccc(Nc2nnc(SCC(=O)Nc3ccccc3[N+](=O)[O-])s2)c1 | -3 | 2 | -7 | . | 17 | -3 | -8 | i
C=CC[n+]1c(-c2ccc(OC)c(OC)c2)csc1NNC(=O)Nc1ccccc1 | -8 | -40 | -16 | -29 | . | 74* | -14 | i
COc1ccc(CCCC(=O)NCCc2ccccc2)c(C)c1 | -1 | -4 | -2 | 6 | . | 89* | 42 | i
CCOc1ccc(/C=N/NC(=O)Cc2csc(Nc3cccc(C(F)(F)F)c3)n2)cc1 | -1 | 0 | -6 | -14 | -3 | . | 5 | i
Cc1ccc(S(=O)(=O)N2CCN(CC(=O)N(CC(C)C)c3c(N)n(CC(C)C)c(=O)[nH]c3=O)CC2)c(C)c1 | 3 | -1 | 3 | -1 | -4 | 3 | -3 | i
CN(C)C(=O)c1cc(C(=O)c2ccc(C(F)(F)F)cc2)c[nH]1 | 3 | 8 | -7 | . | . | -14 | 13 | i
CCCCn1c(N)c(N(CCC(C)C)C(=O)c2cccc(-n3cnnn3)c2)c(=O)[nH]c1=O | . | 3 | 4 | . | . | -5 | . | i
Cc1ccc(SCC(=O)Nc2ccc3c(c2)C(=O)NC3=O)cc1 | -5 | 5 | 3 | 3 | -2 | 3 | 17 | i
CCOC(=O)C1CCN(C(=O)Cc2cccc3ccccc23)CC1 | 0 | 0 | -2 | -15 | -3 | . | 28 | i
O=C(Nc1ccc(O)c2c(=O)cc(-c3ccccc3Cl)oc12)c1ccccc1Cl | -11 | -3 | 0 | -28 | 5 | -20 | -7 | i
O=C(O)c1ccc(NC(=O)c2cn(-c3ccccc3)nc2-c2cccc(Cl)c2)cc1 | 48 | 2 | -2 | -13 | -5 | -41 | 13 | i
O=C(CN1CCCC1)NC(=O)NC1CCCC1 | 9 | -2 | -1 | . | 1 | 1 | 4 | i
Cc1ccc(N(CC(=O)Nc2cc(C)cc(C)c2)S(=O)(=O)c2c(C)noc2C)cc1 | -8 | -2 | -11 | -9 | 10 | 4 | -3 | i
COc1ccc(C(C(=O)NC2CCCC2)N(Cc2cccs2)C(=O)c2ccn[nH]2)cc1OC (stereo unspecified) | -4 | -2 | 1 | . | 1 | -3 | -9 | i
COc1ccc(C(=O)/C=C/C(=O)N(CC(=O)NC2CCCCC2)Cc2cccs2)c(O)c1 | -6 | -6 | -5 | . | 76* | -118 | -1 | .

Screening data as filed in PubChem BioAssay.

These rows are one share of the data. The share of hits here may be higher or lower than overall.
